# StopGo FLuc: Primary qHTS Assay for Foot and Mouth Disease Virus Antivirals against NCGC Sytravon and CBC Compound Libraries: Firefly Luciferase Signal | HEK cells with a luciferase reporter of 2A StopGo recoding | Potency, µM (top dose mostly 57.5 µM), without a hit: at the top dose signal change, negative = less light | 0.23% of 120,000 active | AID 1745856, 2022; active = well fitted falling curve with a large enough effect; inconclusive = small, poorly fitted or top-dose-only effect; inactive = no such curve, though single readings can be large or run the other way; also: nearly all actives have a fitted effect of over 60% in size; overnight with compound
# 2A Renilla: Primary qHTS Assay for Foot and Mouth Disease Virus Antivirals against NCGC Sytravon and CBC Compound Libraries: Renilla Luciferase Signal; HEK cells with a luciferase reporter of 2A StopGo recoding; Potency, µM (top dose mostly 57.5 µM), inactives show at the top dose signal change, negative = less light; 0.32% of 120,000 active; active means well fitted falling curve with a large enough effect; inconclusive means small, poorly fitted or top-dose-only effect; inactive means no such curve, though single readings can be large or run the other way; also: nearly all actives have a fitted effect of over 55% in size; overnight with compound
# Numbers without * were called inactive; ? = inconclusive; & = joins results of further samples; [ ] = dose if it differs, or a comment. % is scaled to controls: 0 for no effect and ±100 for the full control effect; potency is read from the fitted curve at half-maximal effect.
Structure | StopGo FLuc | 2A Renilla
N#Cc1nc(C2CC2)oc1N1CCN(Cc2ccccc2F)CC1 | ? | ?
CCCc1cnc2c(c1SCC(=O)Nc1ccccc1F)c(=O)n(C)c(=O)n2C | 10% | 66%[activator]
Cc1ccc(C(=O)NN=C2CCC(C(C)(C)C)CC2)cc1 (stereo not given) | 155%[activator] | 33%[activator]
COCCCNc1nc2c(c(=O)n(C)c(=O)n2C)n1Cc1ccccc1C | 12% | 14%
N#Cc1nc(-c2ccc(F)cc2)oc1NCCc1ccc(F)cc1 | 114%[activator] | 5%
CCc1cccc(C)c1Nc1c(-c2ccc(N(C)C)cc2)nc2cnccn12 | 3% | 6%
Cc1ccc(NC(=O)C23CC4CCC(CC(C4)C2)C3)cc1 | 37%[activator] | 11%
Cc1ccc(-c2nc(C)c(CCNC(=O)c3ccccc3Br)s2)cc1 | 239%[activator] | 20%
COc1ccc(-c2cc(C(C)=O)c(C)n2CCC(=O)NCc2ccccc2OC)cc1 | -8% | 5%
Cn1c(NCCCO)nc2c1c(=O)n(Cc1ccccc1F)c(=O)n2C | 4% | -4%
N#Cc1ccc(CCC(=O)NCc2cccnc2)cc1 | 10% | 10%
O=C(O)c1ccccc1-c1ccccc1 | 33%[activator] | 11%
CN(Cc1ccccc1)Cc1nc2c([nH]1)c(=O)n(C)c(=O)n2C | 9% | -3%
COC(=O)C1CN(Cc2ccc(C)cc2)CCS(=O)(=O)N1Cc1cn(Cc2ccccc2)nn1 (stereo not given) | 4% | 24%
COC(=O)C1=C(C)N(C2CCCC2)C(=O)C1(NC(=O)C1CC1)C(F)(F)F (stereo not given) | -10% | -4%
CCCNc1c(NC(=O)c2ccc(CC)cc2)c(=O)oc2ccccc12 | 10% | -1%
CCN(c1ccccc1)c1nnc(NC(=O)Nc2ccc(OC)c(OC)c2)s1 | 2% | -2%
COc1ccc(S(=O)(=O)N(CC(C)C)C2CCS(=O)(=O)C2)cc1C (stereo not given) | 3% | 8%
O=C(NC1CCCCC1)C1CCN(CCCc2nc3ccccc3o2)CC1 | 2% | 1%
Cc1cc(O)c2c(CSc3nc(C)cc(C)c3C#N)cc(=O)oc2c1 | -2% | -7%
CCOc1ccc(OCC)c(NC(=O)c2nnn(CC(=O)Nc3ccc(C)cc3C)c2N)c1 | -5% | -3%
COc1ccccc1-c1nc(C#N)c(NCCN(C)C)o1 | -2% | -8%
O=S(=O)(c1ccccc1)N1CCN(c2nc3ccccc3o2)CC1 | 1% | 1%
N#C/C(=C/c1ccc(Cl)cc1Cl)c1nc2ccccc2c(=O)[nH]1 | -2% | 90%[activator]
COc1ccc(S(N)(=O)=O)cc1NC(=O)c1[nH]c(C)c(C(C)=O)c1C | 15% | 5%
CC(C)N(C(=O)COc1ncnc2ccc(Br)cc12)C(C)C | 0% | -2%
COc1ccccc1CNC(=O)c1ccc2c(c1)CCN2S(=O)(=O)c1ccccc1 | 7% | 205%[activator]
Cc1cccc(C)c1NC(=O)C1CCCN(c2cnc3ccccc3n2)C1 (stereo not given) | 55%[activator] | 20%
CCc1ccc(C(=O)COC(=O)C(NC(=O)C2CCC(C)CC2)C(C)C)cc1 (stereo not given) | -7% | -4%
COc1ccccc1N1CCN(c2cc(C)nc3c(-c4ccc(Cl)cc4)c(C)nn23)CC1 | -22% | -10%
CCc1cccc(NC(=O)c2cccc3c2C(=O)N(C2CCCCC2)C3)c1 | ? | -5%
Cc1nn(C)c2c1c(C(F)(F)F)cc(=O)n2C(C)C(=O)NCc1ccccc1Cl (stereo not given) | 0% | -5%
COc1ccc(CNC(=O)CCCn2nc(C)c3c(C)n(-c4ccc(C)cc4)nc3c2=O)cc1OC | -16% | -2%
Cc1ccc(Cn2nc(C)c(C(=O)OCC(=O)c3cc(C)n(C(C)C)c3C)c2Cl)cc1 | -16% | -24%
Cc1ccc(C)c(NC(=O)CSc2nnc(-c3cc4occc4n3C)n2-c2ccccc2C)c1 | -18% | -12%
CCOC(=O)c1c(S(=O)(=O)NCC(=O)N2CCN(c3cccc(Cl)c3)CC2)c(C)n(C)c1C | -13% | 2%

# Arranged by SMILES length (rising): part of the list above
Structure | StopGo FLuc | 2A Renilla
Cc1cccc(C)c1NC(=O)C1CCCN(c2cnc3ccccc3n2)C1 (stereo not given) | 55%[activator] | 20%
CCc1ccc(C(=O)COC(=O)C(NC(=O)C2CCC(C)CC2)C(C)C)cc1 (stereo not given) | -7% | -4%
COc1ccc(S(N)(=O)=O)cc1NC(=O)c1[nH]c(C)c(C(C)=O)c1C | 15% | 5%
Cc1nn(C)c2c1c(C(F)(F)F)cc(=O)n2C(C)C(=O)NCc1ccccc1Cl (stereo not given) | 0% | -5%
Cc1ccc(C)c(NC(=O)CSc2nnc(-c3cc4occc4n3C)n2-c2ccccc2C)c1 | -18% | -12%
CCOC(=O)c1c(S(=O)(=O)NCC(=O)N2CCN(c3cccc(Cl)c3)CC2)c(C)n(C)c1C | -13% | 2%

# Next compounds:
Structure | StopGo FLuc | 2A Renilla
N#Cc1ccc(C(=O)Nc2ccccc2C(=O)NCCc2ccccc2)cc1 | 0% | 6%
CN(C)S(=O)(=O)c1ccc2c(c1)N(CC(=O)N1CCN(c3ccccc3F)CC1)CCS2 | 11% | 5%
O=C1CCCC2=C1C(c1ccccc1)CC(=O)N2c1ccc(F)cc1 (stereo not given) | 3% | 5%
O=C(COc1ccc2c(c1)CCC2)N(Cc1nc2ccccc2c(=O)[nH]1)CC1CCCO1 (stereo not given) | -3% | 34%[activator]
CCC(C)(C)NC(=O)C1CCN(S(=O)(=O)c2ccc3c(c2)CCCN3C(C)=O)CC1 | -5% | -15%
CCCCn1c(Oc2ccccc2Cl)nc2c1c(=O)n(C)c(=O)n2C | 4% | 9%
C(=N\N=C(c1ccccc1)c1ccccc1)/c1cccs1 | 0% | 3%
CC1CCCCN1CCCNC(=O)CN1C(=O)CSc2ccc(S(=O)(=O)N3CCOCC3)cc21 (stereo not given) | -12% | -8%
Cc1ccc2c(c1)-c1onc(C(=O)N3CCN(c4cc(C)ccc4C)CC3)c1CO2 | 6% | 3%
Cc1ccccc1-c1nc(CS(=O)(=O)CC(=O)NCc2ccccc2Br)c(C)o1 | 2% | 62%[activator]
O=c1c2cc(Cl)ccc2ncn1Cc1ncc(-c2ccccc2)o1 | 9% | -8%
O=C(NCc1ccc(F)cc1)C1CCCCN1S(=O)(=O)c1ccc(F)cc1 (stereo not given) | -11% | -5%
CCC(C(=O)Nc1nc2ccccc2s1)n1cnc2c1c(=O)n(C)c(=O)n2C (stereo not given) | 20% | -3%
Cc1c(C#N)c(N)nc2c3c(sc12)NC(=O)CC3c1ccccc1Cl (stereo not given) | 5% | 7%
Cc1ccc2nc(-c3cccs3)c(Nc3c(C)cccc3C)n2c1 | 0% | -5%
CCCCN(CCCC)CCNC(=O)c1cc(=O)[nH]c2ccc(S(=O)(=O)N3CCCCCC3)cc12 | -8% | -12%
Cc1cccc(NC(=O)c2sc3nc(-c4ccccc4)cn3c2C)c1C | 113%[activator] | 17%
O=C(c1ccsc1)N(Cc1ccco1)C1CC1 | 13% | -1%
Cc1ccc(S(=O)(=O)Nc2ccc3nc(-c4cccc(Cl)c4)oc3c2)cc1 | -7% | 10%
CC(C)(C)c1ccccc1NC(=O)c1ccc2c(c1)CCC2 | 2% | 8%
O=C(O)CN1C(=O)S/C(=C/c2cccc(F)c2)C1=O | 24% | 7%
Cc1ccccc1Cn1c(NCc2ccco2)nc2c1c(=O)n(C)c(=O)n2C | -17% | -25%
CCCCn1c(=O)nc2n(-c3ccc(Br)cc3)c3ccccc3cc-2c1=O | -1% | 0%
O=C1C2CCCN2C(=O)N1Cc1coc(-c2cccc(Cl)c2)n1 (stereo not given) | 135%[activator] | 5%
COc1ccc(-c2cc(C(=O)Oc3cccc(C)c3C)c3ccccc3n2)cc1 | 0% | 6%
CC(C)C[C@H]1COc2cccc(F)c2S(=O)(=O)N1Cc1cn(Cc2ccc(C(F)(F)F)cc2)nn1 | -5% | 4%
CCN(CC)C(=O)C1=C(C)Nc2nc3ccccc3n2C1c1cccc(Cl)c1 (stereo not given) | ? | -11%
O=C(Cn1cnc2cc(Cl)ccc2c1=O)N(C1CCCC1)C1CCS(=O)(=O)C1 (stereo not given) | -8% | -15%
N#Cc1ccc(CN2CCCN(CC(=O)N3CCN(C4CCS(=O)(=O)C4)CC3)CC2)cc1 (stereo not given) | 22% | 16%
CC1CC1c1ccc(CNCc2ccco2)o1 (stereo not given) | 20% | 2%
CCc1ccc(C(=O)OCC(=O)c2c[nH]c3ccccc23)cc1 | 32%[activator] | -6%
O=C(NCCCN1CCN(c2ccc(F)cc2)CC1)c1sc2ncccc2c1-n1cccc1 | -33% | -20%
CCCN1C(=O)c2ccccc2NC1c1cc2ccccc2[nH]c1=O (stereo not given) | 4% | 6%
CC(=O)N[C@@H](CC(C)C)C(=O)O | -4% | -3%
CCC(=O)N1CCCc2cc(S(=O)(=O)N3CCC(C(=O)Nc4ccccc4CC)CC3)ccc21 | ? | ?
Cn1c(=O)c2[nH]c(N3CCN(C(=O)CN4CCCC4)CC3)nc2n(C)c1=O | -7% | -6%
Cn1c(COc2cccc(C(F)(F)F)c2)nnc1SCc1c(F)cccc1Cl | 24% | 40%[activator]
Brc1ccc(-c2noc(-c3ccccc3-c3ccccc3)n2)cc1 | 98%[activator] | 16%
Cc1oc2c(C)c3oc(=O)c(CC(=O)N4CCCCC4)c(C)c3cc2c1C | 0% | 3%
O=C(COC(=O)c1ccc(-c2ccccc2)s1)c1ccccc1 | 108%[activator] | 9%
Cc1ccccc1C1N=C(Nc2nc3ccccc3o2)NC2=C1C(=O)CC(C)(C)C2 (stereo not given) | 2% | -3%
Cc1ccc(S(=O)(=O)[C@H]2CS(=O)(=O)C[C@@H]2N2CCN(c3ncccn3)CC2)cc1 | -14% | -15%
Cc1ccc(NC(=O)Cn2cnc3ccc(Cl)cc3c2=O)cc1S(=O)(=O)N1CCOCC1 | -3% | -11%
COc1cccc(CNC(=O)C2CCN(c3ncnc4c3nc3n4CCCCC3)CC2)c1 | -11% | -15%
CC(C)Sc1ncc(Cl)c(C(=O)Nc2ccc(S(=O)(=O)N3CCCCC3)cc2)n1 | 8%&-20% | -3%&-11%
COc1ccc(S(=O)(=O)Nc2cc3c(C(=O)OC(C)C)c(C)oc3c3ccccc23)cc1 | 43%[activator] | 128%[activator]
CC(C)c1ccc(NC(=O)C2CCCN(S(=O)(=O)c3ccc4[nH]c(=O)ccc4c3)C2)cc1 (stereo not given) | 0% | -5%
Cc1cccc(CCNC(=O)c2ccc3c(c2)N(Cc2ccccc2F)C(=O)c2ccccc2S3)c1 | 11% | 0%
CCCCC(=O)Nc1ccc2nc(N3CCN(C(=O)OCC)CC3)cc(C(=O)O)c2c1 | 14% | -2%
Cn1c(=O)c2c(ncn2CC(=O)Nc2cccc(Cl)c2Cl)n(C)c1=O | -25% | 68%[activator]
Cc1ccc(CNC(=O)CCCc2nnc3n(CC(C)C)c(=O)c4sccc4n23)cc1 | -15% | -10%
CS(=O)(=O)N(CC(=O)Nc1cc(C(F)(F)F)ccc1Cl)Cc1ccccc1 | 7% | 1%
O=C(Nc1ccc(C23CC4CC(CC(C4)C2)C3)cc1)c1cccc[n+]1[O-] | ? | 15%
COc1ccc(OC)c(-c2cc(C(=O)NCc3ccc(Cl)cc3)no2)c1 | -1% | -4%
CN(C(=O)CSc1nc2ccc(NC(=O)COc3ccc(F)cc3)cc2s1)c1ccccc1 | -1% | ?
CCc1cccc(NC(=O)CN2C(=O)CN=C(c3ccccc3F)c3cc(Cl)ccc32)c1 | -27% | 5%
Cn1c(=O)[nH]c(=O)c2c1nc(N1CCN(Cc3ccc(F)cc3)CC1)n2Cc1ccccc1 | 9% | 6%
CCc1nn2c(=O)cc(COC(=O)c3ccccc3NC(=O)c3ccc(C(C)(C)C)cc3)nc2s1 | 34%[activator] | -3%
N#Cc1ccccc1CSc1nnc(N2CCCCC2)n1-c1ccccc1 | -5% | 65%[activator]
CN1CCN(C(CNC(=O)c2ccccc2F)c2ccc3c(c2)OCO3)CC1 (stereo not given) | -9% | 8%

# (further entries)
Structure | StopGo FLuc | 2A Renilla
O=C(c1cccs1)N(Cc1cccnc1)c1nc2c(F)cc(F)cc2s1 | -3% | -13%
O=C(c1cccc(F)c1)N1CCCC(c2nc3ccccc3o2)C1 (stereo not given) | 11% | -11%
O=C(NCc1coc(-c2cccs2)n1)C1CCCN(C(=O)c2ccc(F)cc2)C1 (stereo not given) | -6% | -8%
CCOC(=O)c1ccc(NC(=O)Cn2cnc(S(=O)(=O)N3CCCC3)c2)cc1 | -10% | 8%
COC(=O)c1ccc(CO/N=C/c2ccc(OCc3ccc(Cl)cc3)c(OC)c2)cc1 | 252%[activator] | 4%

# Quoted at random: five compounds from above.
Structure | StopGo FLuc | 2A Renilla
O=C(c1cccc(F)c1)N1CCCC(c2nc3ccccc3o2)C1 (stereo not given) | 11% | -11%
O=C(c1cccs1)N(Cc1cccnc1)c1nc2c(F)cc(F)cc2s1 | -3% | -13%
O=C(NCc1coc(-c2cccs2)n1)C1CCCN(C(=O)c2ccc(F)cc2)C1 (stereo not given) | -6% | -8%
CCOC(=O)c1ccc(NC(=O)Cn2cnc(S(=O)(=O)N3CCCC3)c2)cc1 | -10% | 8%
COC(=O)c1ccc(CO/N=C/c2ccc(OCc3ccc(Cl)cc3)c(OC)c2)cc1 | 252%[activator] | 4%

# Compound activity (PubChem)

# The list is partial; count on the stated rates, not on these rows.
